Source: PubChem BioAssay
LASV entry inh = inhibitors of Lassa virus binding or entry into cells | actives 4.1% (n = 18,000) | AID 720533 | Lassa virus pseudotyped entry inhibition, cell-based qHTS; control for the full effect not named in the record; many of its hits are not listed in these tables | Potency, µM (top dose mostly 49.2 µM), for inactives: top-dose activity change, negative = inhibition, actives largely listed as inhibitors; active = well fitted inhibition curve with a large enough effect; inconclusive = small, poorly fitted or top-dose-only effect; inactive = no such curve, though single readings can be large or run the other way; tested in HEK293 cells; also: luciferase read-out
Marburg entry = blocks Marburg virus binding or cell entry; Marburg virus pseudotype entry/binding inhibition, cell-based; control for the full effect not named in the record; many of its hits are not listed in these tables; AID 720532; actives 6.5% (n = 18,000); Potency, µM (top dose mostly 49.2 µM), for the others: top-dose activity change, negative = inhibition, most hits filed as inhibitors; active means well fitted inhibition curve with a large enough effect; inconclusive means small, poorly fitted or top-dose-only effect; inactive means no such curve, though single readings can be large or run the other way; tested in HEK293 cells; also: luciferase read-out
* hit, by the source's call; u = inconclusive; x = not tested or not shown; & = joins results of further samples; [ ] = dose if it differs, or a comment. % is scaled to controls: 0 for no effect and ±100 for the full control effect; potency is read from the fitted curve at half-maximal effect. An unsorted share of the library. About 8.2% of those tested had a hit in this group.

SMILES	LASV entry inh	Marburg entry
CCN1C(=O)N[C@@H](CCc2ccccc2)[C@@H](C(=O)OC)[C@H]1C	6%[8.59 µM]	40%[activator][8.59 µM]
COc1ccccc1-c1ccnc(-n2ncc(C(=O)NCCc3ccncc3)c2C)n1	-18%	-19%
C=CCOC(=O)N[C@H](/C(C(=O)OC)=C(\C)NCc1ccccc1)c1ccc(C)cc1	-7%	-15%
Nc1ncnc2c1[nH]c(=O)n2C1OC(CO)C(O)C1O (stereo not given)	4%	0%
Cn1ccc2c(-c3cccc(C=O)c3F)cc3c(c21)C1CCC3C1 (stereo not given)	12%	0%
C=CCN(C)CCCCCCOc1ccc(C(=O)c2ccc(Br)cc2)c(F)c1	u	4µM*
Cn1c(-c2ccccc2)c(O)c(=O)c2ccccc21	x	35%[activator][8.59 µM]
COc1cc(-c2oc3cc(O)cc(O)c3c(=O)c2O[C@@H]2O[C@H](CO)[C@@H](O)[C@H](O)[C@H]2O)cc(OC)c1O	15%	1%
CC(C)=CC1C(C(=O)OCc2cccc(Oc3ccccc3)c2)C1(C)C (stereo not given)	-13%	1%
Cc1ncc2c(c1CNC(=O)c1ccc3c(c1)OCO3)CCN(C(=O)c1ccc3ccccc3c1)C2	-25%	-5%
CCC/C=C/C(C)O (stereo not given)	-13%	4%
COc1ccc([C@H]2C[C@H](O)[C@@H](n3cc(C4CC4)nn3)CN2Cc2cccs2)cc1	u	u
CCCCCC(C)N (stereo not given)	-8%	11%
CC(C)C1CCC(C(=O)N[C@H](Cc2ccccc2)C(=O)O)CC1 (stereo not given in full)	-1%	6%
CN(Cc1cccc2ncccc12)C(=O)c1cnn(-c2ncc3c(n2)-c2ccccc2CC3)c1C1CC1	u	u
O=C(NC(CC1=CCCCC1)c1ccc2c(c1)OCO2)C(F)(F)F (stereo not given)	27%[8.59 µM]	47%[activator][8.59 µM]
NC1(C(=O)O)C[C@H](C(=O)O)[C@H](C(=O)O)C1 (stereo not given in full)	2%&11%&6%	13%&11%&9%
COC(=O)c1nnc(SC)nc1C(=O)OC	-3%	17%
Cn1ccc2c(N3CCCC3)cc3c(c21)C1CCC3O1 (stereo not given)	x	u
C[N+](C)(C)CC#CCN1CCCC1=O	3%	-2%
CN(Cc1ccccc1)Cc1cc(=O)oc2ccccc12	91%[activator]	-2%
C=C1CC[C@H](O)C/C1=C/C=C1\CCC[C@]2(C)C([C@H](C)CCCC(C)(C)O)CC[C@@H]12 (stereo not given in full)	u	27%&0%
OC[C@H]1O[C@@H](O[C@@H]2OC=C[C@H]3[C@H](O)[C@@H]4O[C@]4(CO)[C@@H]23)[C@H](O)[C@@H](O)[C@@H]1O	1%	-9%
CC(C)C[C@H](NC(=O)[C@H](CC(C)C)NC(=O)[C@H](Cc1ccc(O)cc1)NC(=O)CNC(=O)[C@H](C)NC(=O)[C@H](CO)NC(=O)[C@H](CC(N)=O)NC(=O)[C@H](CC(C)C)NC(=O)[C@@H](NC(=O)[C@H](Cc1c[nH]c2ccccc12)NC(=O)CN)[C@@H](C)O)C(=O)NCC(=O)N1CCC[C@H]1C(=O)N1CCC[C@H]1C(=O)N1CCC[C@H]1C(=O)NCC(=O)N[C@@H](Cc1ccccc1)C(=O)N[C@@H](CO)C(=O)N1CCC[C@H]1C(=O)N[C@@H](Cc1ccccc1)C(=O)N[C@@H](CCCNC(=N)N)C(N)=O	-6%	2%
COC(=O)C12CC3=CC(CC3=O)Cc3ccccc3[C@@H]1CNC2=O (stereo not given in full)	-12%	-24%
O=[N+]([O-])c1ccc(CSc2ncnc3c2ncn3C2OC(CO)C(O)C2O)cc1 (stereo not given)	-14%	13%
CN1CCCN(C(c2ccccc2)c2ccc(Cl)cc2)CC1 (stereo not given)	22µM*	7.1µM*
CC(C)C[C@@H](CC(=O)N[C@H](CC(=O)N[C@@H]1CCNC[C@H]1C(=O)N[C@H](CC(=O)N[C@@H](CCC(=O)O)CC(=O)O)CC(C)C)C(C)C)NC(=O)[C@@H]1CCCC[C@H]1N	-14%	-24%
Oc1ccc([C@H]2CNCc3c2ccc(O)c3O)cc1O	-21%	6.3µM*
CC(N)[C@@H](O)c1ccccc1 (stereo not given in full)	11%	-15%
COc1ccc2[nH]c3c(c2c1)CCNC3=O	-19%	19%
O=c1c(CN2CCOc3ccc(CN4CCC(Oc5cccnc5)CC4)cc3C2)coc2ccccc12	-25%	11µM*
O=C1OCCN1C(=O)[C@H]1[C@H](c2ccccc2)C(c2ccc(F)cc2)=NN1c1ccc(Br)cc1	u	-30%
Nc1cc(N2CCCCC2)nc(N)[n+]1OS(=O)(=O)[O-]	5%&-5%	14%&13%
COc1ccccc1Oc1coc2cc(O)ccc2c1=O	5%	-10%
O=C1CCCC2=C1[C@H]1O[C@](CCCCN3C(=O)c4ccccc4C3=O)(Cc3c1ccc1ccccc31)O2	-19%[8.59 µM]	-23%[8.59 µM]
C[C@H](CO)NS(=O)(=O)c1ccc(Br)cc1F	16%	10%
CC(C)[C@H]1COc2cc(Br)ccc2S(=O)(=O)N1C(=O)c1ccc(F)cc1F	-5%	26%
Cc1cc(C(=O)NCCN2Cc3ccccc3OC(c3ccccc3F)C2)no1 (stereo not given)	-15%	-27%
CC(=O)[C@H]1CC[C@H]2[C@@H]3CC[C@H]4C[C@](C)(O)CC[C@]4(C)[C@H]3CC[C@]12C	-8%	-11%
COc1ccc2c(c1)CCc1cnc(-n3ncc(C(=O)NCc4cc(C)no4)c3C3CC3)nc1-2	0%	39%[activator]
OCCN1CCN(CC/C=C2/c3ccccc3Sc3ccc(Cl)cc32)CC1	-28%[17.8 µM]	u
CCN(Cc1ccncc1)Cc1ccc2c(c1)CN(C(=O)c1ccccc1-n1cccn1)CCO2	-4%	6%
CC(=O)Oc1cc(-c2coc3cc(OC(C)=O)c(OC(C)=O)c(OC(C)=O)c3c2=O)cc(OC(C)=O)c1OC(C)=O	-5%	14µM*
CCCCCCCCCCCCCC[n+]1ccc(C)cc1	22µM*	u
CC(C)C[C@H](NC(=O)[C@H](CC(C)C)NC(=O)[C@H](Cc1ccccc1)NC(=O)[C@@H](N)CO)C(=O)N[C@@H](CCCN=C(N)N)C(=O)N[C@@H](CC(N)=O)C(=O)O	-2%	9%
COc1ccc2c3c([nH]c2c1)C(C)=NCC3	-7%	u
C=C(C)C(=O)C=CC=Cc1ccccc1	x	-87%[8.59 µM]

3 entries drawn at random from those above:
SMILES	LASV entry inh	Marburg entry
C[C@H](CO)NS(=O)(=O)c1ccc(Br)cc1F	16%	10%
C=C(C)C(=O)C=CC=Cc1ccccc1	x	-87%[8.59 µM]
Cc1cc(C(=O)NCCN2Cc3ccccc3OC(c3ccccc3F)C2)no1 (stereo not given)	-15%	-27%

(list continues)
SMILES	LASV entry inh	Marburg entry
CC(C)CCCC(C)C1CCC2C3CC(O)[C@@]4(O)CC(O)CC[C@@]4(C)C3CC[C@@]12C (stereo not given in full)	3%	3%
Cc1cc(O)c2c(c1O)C(=O)c1c(O)cc(C)c(O)c1C2=O	3%	2%
CCCCCCCCCCCCC/C=C\[C@@H](O)[C@@H](N)CO	-15%	-5%
CC(C)=CCC/C(C)=C/CO	8%&-13%	-4%&2%
Cc1cccc(CNc2ncnc3ccc(-c4ccccc4CN(C)C)cc23)c1	u	10µM*
C=CCN=C1NC(c2cccc(C(F)(F)F)c2)C(C(=O)OC)=C(C)N1Cc1ccccc1 (stereo not given)	x	-25%[8.59 µM]
CC(=O)N1CC[C@@H]2CC(=O)C[C@@H](C)[C@@H]21	0%[107 µM]	-6%[107 µM]
Cn1ccc2c(-c3ccccc3F)cc3c(c21)C1CCC3C1 (stereo not given)	12%	u
CC(C)OC(=O)[C@H]1O[C@H](CCCCOCc2ccccc2)[C@@H](C)[C@H]2O[C@H]21	2%	1%
CC1(C)CO[C@H](CC(=O)O)CN1	-2%	-3%
CN(C)C(=O)c1ccc(-c2nc(Nc3ccc(F)cc3)c3ccccc3n2)cc1	-23%	-26%
C=C/C(=C/C(=O)C[C@H](C)C[C@@H](C)CC[C@H](O)[C@H](C)C(=O)C[C@@H](O)[C@H](C)[C@@H](C)OC(=O)C[C@@H](O)C1=C(C)C(=O)OC1=O)CC	2µM*	2.5µM*
O=c1[nH]c(-c2ccccc2O)nc2ccccc12	31%[activator]	31%[activator]
Clc1ccc(-n2cccc2CN2CCc3nnc(Cc4ccccc4)n3CC2)nc1	6%	5%
CCOC(=O)CN1C(=O)[C@@]2(CC(C)=C[C@@H](COCc3ccccc3)O2)c2ccccc21	x	7%[8.59 µM]
Cc1cc(=O)oc2c(O)c(O)ccc12	u	-28%
COc1ccc2c(c1)C(=O)[C@H](OC(=O)Nc1ccc(OC(F)F)cc1)[C@@H](c1ccc(OC)c(Br)c1)O2	1%	27%
COc1ccccc1-c1cncnc1NCCN1CCOCC1	0%	4%
CC(C)[C@H](NC(=O)[C@H](CCCCN)NC(=O)[C@@H](NC(=O)[C@@H]1CCCN1C(=O)[C@H](CCCN=C(N)N)NC(=O)[C@H](CCCN=C(N)N)NC(=O)[C@H](CCCCN)NC(=O)[C@H](CCCCN)NC(=O)CNC(=O)[C@@H](NC(=O)[C@@H]1CCCN1C(=O)[C@@H](N)CCCCN)C(C)C)C(C)C)C(=O)N[C@@H](Cc1ccc(O)cc1)C(=O)N1CCC[C@H]1C(=O)O	-3%	13%
CCn1nc(C)cc1C(=O)NCC1Cc2cccc(-c3cccnc3)c2O1 (stereo not given)	-3%	-10%
COc1ccc(C(=O)OC2C[C@H]3CC[C@@H](C2)N3C)cc1OC (stereo not given in full)	9%[17.8 µM]	-20%[17.8 µM]
O=C(O)[C@@]1(CCCCCCOc2ccc(Cl)cc2)CO1	-3%	-7%
COc1cc2c(cc1OC)[C@@H]1C(=O)c3ccc(O)c(CC=C(C)C)c3OC1CO2 (stereo not given in full)	-4%	8%
CCOc1cccc2oc(-c3ccccc3Cl)cc(=O)c12	9%	-26%
NCC[C@H](NC(=O)[C@@H](N)CCCN=C(N)N[N+](=O)[O-])C(N)=O	-7%	-3%
CCOC(=O)OC[C@H]1O[C@H](c2cc(C)cc(C)c2)C=C[C@H]1OC(=O)OCC	4%[8.59 µM]	2%[8.59 µM]
c1ccc(Nc2ncnc3ccc(-c4ccc5c(c4)OCO5)cc23)cc1	-17%	12%
COc1ccccc1-c1ccnc(-n2ncc(C(=O)NCC3(N4CCOCC4)CCCC3)c2C)n1	-3%	-13%
CCCCCN(CCCCC)C(=O)C(CCC(=O)O)NC(=O)c1ccc(Cl)c(Cl)c1 (stereo not given)	-4%	-8%
COC(=O)C12CC3=CCC4C(=O)N(c5ccccc5)C(=O)C4C3Cc3ccccc3[C@@H]1CNC2=O (stereo not given in full)	-4%	-10%
C=COC(=O)/C=C/C	1%	7%
O=[N+]([O-])C(Br)(CO)CO	-9%	-17%
CCCN(CCC)Cc1cc(=O)oc2cc(C)c(C)cc12	-8%	u
C=C1[C@H](CO)[C@@H](O)C[C@@H]1n1cnc2c(=O)[nH]c(N)nc21	-9%	-1%
C=CCOC(=O)N[C@H](C(C(=O)OC)=C(C)NCc1ccccc1)c1ccc(Br)cc1	-3%[8.59 µM]	7%[8.59 µM]
COc1cc2c(cc1OC)[C@@H]1O[C@](CCCCN3C(=O)c4ccccc4C3=O)(C2)OC2=C1C(=O)CC(C)(C)C2	-26%[8.59 µM]	-9%[8.59 µM]

Compounds shown so far that contain an aryl methoxy group, in the order listed:
SMILES	LASV entry inh	Marburg entry
COc1ccccc1-c1ccnc(-n2ncc(C(=O)NCCc3ccncc3)c2C)n1	-18%	-19%
COc1cc(-c2oc3cc(O)cc(O)c3c(=O)c2O[C@@H]2O[C@H](CO)[C@@H](O)[C@H](O)[C@H]2O)cc(OC)c1O	15%	1%
COc1ccc([C@H]2C[C@H](O)[C@@H](n3cc(C4CC4)nn3)CN2Cc2cccs2)cc1	u	u
COc1ccc2[nH]c3c(c2c1)CCNC3=O	-19%	19%
COc1ccccc1Oc1coc2cc(O)ccc2c1=O	5%	-10%
COc1ccc2c(c1)CCc1cnc(-n3ncc(C(=O)NCc4cc(C)no4)c3C3CC3)nc1-2	0%	39%[activator]
COc1ccc2c3c([nH]c2c1)C(C)=NCC3	-7%	u
COc1ccc2c(c1)C(=O)[C@H](OC(=O)Nc1ccc(OC(F)F)cc1)[C@@H](c1ccc(OC)c(Br)c1)O2	1%	27%
COc1ccccc1-c1cncnc1NCCN1CCOCC1	0%	4%
COc1ccc(C(=O)OC2C[C@H]3CC[C@@H](C2)N3C)cc1OC (stereo not given in full)	9%[17.8 µM]	-20%[17.8 µM]
COc1cc2c(cc1OC)[C@@H]1C(=O)c3ccc(O)c(CC=C(C)C)c3OC1CO2 (stereo not given in full)	-4%	8%
COc1ccccc1-c1ccnc(-n2ncc(C(=O)NCC3(N4CCOCC4)CCCC3)c2C)n1	-3%	-13%
COc1cc2c(cc1OC)[C@@H]1O[C@](CCCCN3C(=O)c4ccccc4C3=O)(C2)OC2=C1C(=O)CC(C)(C)C2	-26%[8.59 µM]	-9%[8.59 µM]
